Mtb H37Rv: Confirmatory growth inhibition assay against Mycobacterium tuberculosis H37Rv, potency (AID 1949). most inactive calls were filed without a number and no value below 0 was filed. inhibition, % at 10 µg/mL; hits with a dose series show IC50 in µg/mL. 1.6% of 100,000 active;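 active = confirmed in a dose series; inconclusive = about 50% or more but not retested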;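 also: bacteria grown 7 days with compound before Alamar blue readout; 0% = untreated bacteria and 100% = reference antibiotic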
Starred values were filed as active, the others as inactive; i = inactive; u = inconclusive.

SMILES,Mtb H37Rv
COc1ccccc1C1CC(c2cccc(NS(C)(=O)=O)c2)=NN1C(=O)c1cccs1 (centres undefined),26.4%
Cc1nc2ccc(Br)cc2c2c1CC(C(C)(Cl)Br)O2 (centres undefined),i
CC(C)(C)NC(=O)Cc1c(F)cccc1Cl,i
O=C1CC(Sc2nnnn2-c2ccccc2)C(=O)N1c1ccc(Oc2ccccc2)cc1 (centres undefined),i
COc1ccc(CC(=O)Nc2cc(Cl)ccc2C)cc1,i
CC(CCc1ccccc1)NC(=O)c1cccc(F)c1 (centres undefined),i
CC(Oc1cccc(Cl)c1)C(=O)N1CCCCCC1 (centres undefined),i
CCSc1ccccc1C(=O)Nc1cc(C(=O)OC)ccc1C(=O)OC,i
CCOC(=O)Cn1cc(C(=O)c2cccs2)c2ccccc21,u
Cc1nc2ccccc2n1Cc1ccccc1F,5.4%
O=c1c2ccccc2nc(CSc2ncnc3nc[nH]c23)n1-c1cccc(C(F)(F)F)c1,i
O=C(O)C1C(C(=O)O)C1(c1ccccc1)c1ccccc1 (centres undefined),i
COc1ccc(-c2c(C(F)(F)F)oc3c(C)c(OC(C)=O)ccc3c2=O)cc1,i
CC1CCCN(CCCOc2ccc(Cl)cc2Br)C1 (centres undefined),i
CCOC(=O)C1=C(C)NC(=S)NC1c1cc(OCC)c(OCC)cc1Cl (centres undefined),i

Brought forward from above: two entries; new compounds follow.
SMILES,Mtb H37Rv
CC1CCCN(CCCOc2ccc(Cl)cc2Br)C1 (centres undefined),i
CCOC(=O)C1=C(C)NC(=S)NC1c1cc(OCC)c(OCC)cc1Cl (centres undefined),i
CN(Cc1ccccc1)S(=O)(=O)c1ccc(OCC(=O)N2CCN(c3ccc(F)cc3)CC2)cc1,i
CCC(Oc1ccccc1)C(=O)N(CC)C1CCCCC1 (centres undefined),i
O=C(O)c1ccc(Cl)c(NC(=S)NC(=O)c2cc(I)ccc2Cl)c1,i
CC(=O)c1ccc(NC(=O)c2ccc(OCc3ccccc3)cc2)cc1,1.5%
CC1(C)Cc2c(c(N3CCOCC3)nc3sc4c(N5CCOCC5)ncnc4c23)CO1,i
S=c1[nH]nc(NCc2ccccc2)s1,3.1%
CC(C)c1ccccc1OCC(=O)Nc1ccc(S(=O)(=O)N2CCCC2)cc1,4.7%
COc1ccc(-c2nc3cc(NC(=S)NC(=O)c4ccc(C)c(C)c4)ccc3o2)cc1,i
CC1=C(C(=O)OCC2CCCO2)C(c2ccc(F)cc2)NC(=O)N1 (centres undefined),i
O=C(Nc1scc2c1c(=O)oc1ccccc12)c1ccc2c(c1)OCO2,i
CN1CCN(C(=S)NC2CCCCC2)CC1,i
O=C(O)COc1ccccc1-c1nc(-c2ccccc2)c(-c2ccccc2)[nH]1,i
COc1cccc(NC(=O)c2ccccc2-c2nc(-c3ccc(F)cc3)no2)c1,i
CCc1ccc(OCC(=O)Nc2c(C)cccc2CC)cc1,7.6%
COc1cc(C)c(Cl)cc1S(=O)(=O)N1CCOCC1,i

A few values from the results shown:
For Mtb H37Rv, CC(C)c1ccccc1OCC(=O)Nc1ccc(S(=O)(=O)N2CCCC2)cc1 has the entry 4.7%
For Mtb H37Rv, CC(=O)c1ccc(NC(=O)c2ccc(OCc3ccccc3)cc2)cc1 has the entry 1.5%

The listing picks up; the 5 compounds before the break are reprinted first.
SMILES,Mtb H37Rv
CN1CCN(C(=S)NC2CCCCC2)CC1,i
O=C(O)COc1ccccc1-c1nc(-c2ccccc2)c(-c2ccccc2)[nH]1,i
COc1cccc(NC(=O)c2ccccc2-c2nc(-c3ccc(F)cc3)no2)c1,i
CCc1ccc(OCC(=O)Nc2c(C)cccc2CC)cc1,7.6%
COc1cc(C)c(Cl)cc1S(=O)(=O)N1CCOCC1,i
Cc1cccc(C(=O)Nc2ccc(Br)cn2)c1,i
Cc1cccc(N2COc3cc4c(cc3C2)OCO4)c1,i
COc1ccc(N(CC(=O)NC2CC3CCC2C3)S(=O)(=O)c2ccc(C)cc2)cc1 (centres undefined),4.2%
O=C(NCc1cccnc1)c1ccccc1O,0.4%
O=C(c1ccc(-c2ccccc2)cc1)N1CCN(c2ncccn2)CC1,i
O=C(CSc1nc2ccccc2c(=O)n1-c1ccc(Br)cc1)Nc1cccc(F)c1,i
COC(=O)c1c(NC(=O)c2ccc(Cl)s2)sc(C(=O)Nc2ccccc2OC)c1C,i
Nc1oc2cc(O)ccc2c(=O)c1-c1nc2ccccc2s1,i
COC(=O)c1c(-c2ccc(Cl)cc2)csc1NC(=O)c1ccccc1F,i
CCN(CC)CCCN1C(=O)C(O)=C(C(=O)c2ccco2)C1c1ccccn1 (centres undefined),3.2%
Clc1ccccc1CSc1nnc(-c2ccccc2)n1-c1ccccc1,i
O=C(O)c1cc(Nc2nc(-c3cccnc3)cs2)ccc1O,i
CC(NC(=O)CC(O)(C(F)(F)F)C(F)(F)F)c1ccccc1 (centres undefined),1.5%
O=C(c1cccc2ccccc12)N1CCN(c2ccc([N+](=O)[O-])c(NCCc3ccccc3)c2)CC1,i
COC(=O)c1c(NC(=O)CN2C(=O)c3ccccc3C2=O)sc2c1CCCC2,i

Reformatted with each value named: entries from further up
canonical_smiles: CCN(CC)CCCN1C(=O)C(O)=C(C(=O)c2ccco2)C1c1ccccn1 (centres undefined)
- Mtb H37Rv = 3.2%
canonical_smiles: Clc1ccccc1CSc1nnc(-c2ccccc2)n1-c1ccccc1
- Mtb H37Rv = i

Remaining list, next part.
SMILES,Mtb H37Rv
COC(=O)C1=C(C)OC(N)=C(C#N)C1c1cc(COc2ccc(F)cc2)c(C)cc1C (centres undefined),1.8%
COc1cc(S(=O)(=O)N2CCCCC2)c(Cl)cc1Cl,i
O=C(CSc1nc2sc3c(c2c(=O)n1-c1ccccc1)CCCC3)N1CCCc2ccccc21,4.2%
CCOc1ccc(OCC)c(C(=O)C(C)=O)c1,i
CC1CCN(S(=O)(=O)c2ccc(NC(=O)C3CC3)cc2)CC1,i
O=C(OCc1nnc(-c2ccccc2)o1)c1ccc(Cl)cc1,i
COc1cccc(C(C)NC(=O)Nc2cccc(F)c2)c1 (centres undefined),i
COc1ccccc1NC(=O)c1cc(S(=O)(=O)N2CCOCC2)ccc1Cl,i
COc1ccc(N2C(=O)CC(NC3CCCCCCC3)C2=O)cc1 (centres undefined),0.8%
Cc1ccc(C(=O)NCc2ccccc2)cc1Br,1.6%
Nc1nc2ccccc2cc1C(=O)Nc1cccc(Cl)c1,1.4%
O=C(CCN1C(=O)c2ccccc2C1=O)NC(=S)Nc1ccccc1,3.9%
O=C(O)c1ccc(NS(=O)(=O)c2ccc(-c3ccccc3)cc2)cc1,i
Cc1cc(C)cc(NC(=S)NC(=O)COc2ccccc2C)c1,i
COc1cc(COc2ccc3c(oc(=O)c4ccccc43)c2C)cc(OC)c1OC,i
CCCc1cc(=O)[nH]c(Nc2nc(C)c3ccccc3n2)n1,2.6%
O=C(c1ccco1)N1CCN(S(=O)(=O)c2ccccc2F)CC1,i
COc1cccc(NC(=O)CN(c2cccc(C)c2)S(=O)(=O)c2ccc(C)cc2)c1,i
O=C(CCSc1ccccc1)Nc1ccc(F)cc1F,i
CCc1ccc(NC(=O)CSc2nc3ccc(NC(=O)CSc4ccccn4)cc3s2)cc1,i
Cc1nn(Cc2ccc(C(=O)NC3CCCCC3)cc2)c(C)c1Cl,i
CC(NC(=O)C12CC3CC(CC(C3)C1)C2)C(=O)N1CCOCC1 (centres undefined),i
CC(C)c1ccccc1OCCNC(=S)NC(=O)c1cccnc1,i
O=C(CSc1ccccc1)Nc1cccc2c1C(=O)NC2=O,i
Cc1ccc(-c2cc(C(F)F)nc(NCc3ccco3)n2)cc1,i
COc1cc2[nH]c(=S)n(NC(=O)CC(C)C)c(=O)c2cc1OC,i
CCOC(=O)N1CCN(C(=O)CNC(=O)c2ccc(Br)cc2)CC1,0.4%
CC(Oc1ccc(Cl)cc1Cl)C(=O)NC(=S)Nc1ccc2c(c1)C(=O)N(C)C2=O (centres undefined),i
Cc1ccc(SCc2cc(=O)[nH]c(/N=C(\N)Nc3ccc(C)c(C)c3)n2)cc1,i
COc1cc(NC(=O)c2c(OC)cccc2OC)ccc1NC(=O)c1ccccc1Cl,i

(cont.)
canonical_smiles | Mtb H37Rv
Cc1ccc(C(=O)Nc2ccccc2NC(=O)c2ccc(C)o2)o1 | i
Cc1cc(Cl)ccc1NC(=O)CN1CCC(C(N)=O)(N2CCCCC2)CC1 | i
CC(=O)c1ccc2c3c(cccc13)C(=O)N(c1ccc3ccccc3c1)C2=O | i
O=C(c1ccncc1)N1CCN(c2ccc3ccccc3n2)CC1 | i
CN(C)c1ccc(Nc2nc(-c3ccncc3)cs2)cc1 | i
NC(=O)C1CCN(C(=O)c2ccc(F)cc2)CC1 | i
O=C1CC(C(=O)NCCc2ccccc2)C2(CCCCC2)O1 (centres undefined) | i
CN(C)S(=O)(=O)N(C)c1ccc(O)cc1 | i
O=C(CN1CC(c2ccccc2)CC1=O)OCc1cccc(Br)c1 (centres undefined) | i
C=CCN1C(=O)NC(=O)/C(=C\c2ccc(OC)c(O)c2)C1=O | 3.6%
Cc1nc(N/C(N)=N/C(=S)Nc2ccccc2)nc2ccccc12 | i
CCOC(=O)CN(c1ccc(OCc2ccccc2)cc1)S(C)(=O)=O | i
Cc1ccc(SCCC(=O)Nc2ccccc2C)cc1 | 1.3%
O=C(Nc1ccc(Nc2ccccc2)cc1)C(Cl)Cl | 6.79µg/mL*
C#CCOc1c(Br)cc(/C=C(/C#N)c2ccc(C(=O)O)cc2)cc1OC | i
O=C1c2ccccc2C(=O)N1OS(=O)(=O)c1ccc(Br)cc1 | i
CC(C)C(=O)Nc1cccc(C(=O)Nc2nnc(C(F)(F)F)s2)c1 | i
CCC(=O)Nc1nc2ccc(S(C)(=O)=O)cc2s1 | i
C=Cc1cccc(NC(=O)c2cccc(NC(=O)c3ccco3)c2)c1 | 16.1%
c1ccc(NCn2cncn2)nc1 | i
NC(=O)C(Cc1ccccc1)NC(=O)c1ccc(Cl)c(Cl)c1 (centres undefined) | i
C=CCNC(=O)C(=O)Nc1cc(Cl)ccc1OC | i
C=COCCNC(=O)C(=O)Nc1ccccc1F | i
COCCNC(=O)/C(=C\c1ccco1)NC(=O)c1ccccc1 | i
COc1ccc(CC(=O)NC(C)c2nnc(SCCOc3ccc(OC)cc3)n2C)cc1 (centres undefined) | i
CC(C)C(=O)N1CCN(c2ccc(NC(=O)C(C)(c3ccccc3)c3ccccc3)cc2)CC1 | 5.6%
CCOc1cc(C2C(C(=O)OC)=CN(C)C=C2C(=O)OC)cc(Br)c1O | i
COC(=O)c1c(NC(=S)NCCc2ccc(OC)c(OC)c2)sc2c1CCCCCC2 | i
CCC(=O)n1c2c(c3ccccc31)Nc1ccccc1N2 | i
CCC(=O)Nc1nnc(SCC(=O)N2CCc3ccccc32)s1 | 1.7%
CCc1cccc(C)c1NC(=O)CSc1nnc(COc2ccc(C(C)C)cc2)o1 | 1.9%
O=C(NCCC1=CCCCC1)c1cc(Cl)ccc1Cl | i
C=CCn1c(SCC(=O)NCC2CCCO2)nc2scc(-c3ccc(OC)cc3)c2c1=O (centres undefined) | 1.1%
CCOC(=O)c1cc(-c2ccccc2)sc1NC(=S)NCCCN1CCCC1=O | i
O=C(NN1C(=O)/C(=C/c2ccccc2)SC1=S)c1cccnc1 | i
CCOc1ccc(C2C(C(N)=O)=C(C)Nc3ncnn32)cc1 (centres undefined) | i
CCC(C(=O)NC1CC(C)(C)NC(C)(C)C1)c1ccccc1 (centres undefined) | i
COc1ccc(-n2nc3cc(C)c(NC(=O)c4cc(C)cc(C)c4)cc3n2)cc1 | i
COc1ccc(CCNC(=S)NCc2cn(-c3ccccc3)nc2-c2ccccc2)cc1OC | 0.9%
Cn1cnnc1-c1cccc(NC(=O)C(c2ccccc2)c2ccccc2)c1 | i
Cc1ccc(-c2ccc(CCC(=O)O)n2NC(=O)c2ccco2)cc1 | i
N#C/C(=C/c1ccc(I)o1)c1ccc2c(c1)OCO2 | i
CCC(CC)C(=O)Nc1ccc(S(=O)(=O)NCCc2ccccc2)cc1 | i
COCCCNCCOc1ccc(Cl)c(Cl)c1 | i
COc1cc(/C=C2\C(=O)N(c3nc(-c4ccc(C)cc4)cs3)N=C2c2ccc([N+](=O)[O-])cc2)ccc1O | i
CCn1c(CNC(=O)c2ccc(Cl)c(Cl)c2)nnc1SCC(=O)Nc1nccs1 | i
CC(=O)Nc1ccc(S(=O)(=O)Nc2ccc(I)cc2C)cc1 | i
O=C(c1ccccc1)c1ccc(N2CCCC2)c(F)c1 | 3.0%
O=C(Cc1ccccc1)NCc1nc2ccccc2n1Cc1ccccc1 | i
CCn1c(SCC(=O)Nc2nc(-c3ccccc3)cs2)nnc1-c1ccccc1C | i
CC(C(=O)Nc1cccc(Br)c1)N(c1ccc(Oc2ccccc2)cc1)S(C)(=O)=O (centres undefined) | 2.1%
Cc1c(Cl)cccc1NC(=O)c1ccc(N(C)S(C)(=O)=O)cc1 | i
COc1ccc(C(=O)CSc2nc(-c3ccccc3)ccc2C#N)cc1 | 1.8%
CCc1cccc(CC)c1NC(=O)C(C)N1C(=O)c2ccccc2C1=O (centres undefined) | i
CCOc1ccc(NC(=O)c2cccc(NC(=O)c3ccccc3)c2)cc1 | 0.5%
COc1ccc(NC(=S)Nc2cc(C)n(Cc3ccc(Cl)cc3)n2)cc1OC | 2.9%
COC(=O)C1=CN(C)C=C(C(=O)OC)C1c1ccc(OC)cc1OC | 4.1%
CCC(=O)Nc1cccc(NC(=O)C(C)C)c1 | i
CCOc1ccc(NC(=O)CN(C)S(=O)(=O)c2ccc(F)cc2)cc1 | i
COC(=O)c1cccc(Cn2cc(C=O)c3ccccc32)c1 | i
O=C(c1ccccc1F)N1CCCC(C(=O)N2CCCC2)C1 (centres undefined) | i

Screening data deposited in PubChem by Southern Research Institute.

An excerpt; count on the stated rates, not on these rows.
